YopH PTP inh: inhibitors of Yersinia enterocolitica YopH tyrosine phosphatase | AID 898 | fluorescence Ex485/Em525 | 140,000 compounds, 0.16% hits | inhibition, %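 (about 10 µM by stock and volumes)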;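 active = inhibition of 50% or more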;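 note: controls were vehicle for no effect and minimum signal wells for full effect; inactives centre near -20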
Arbovirus anti: blocks arbovirus infection; inhibition, % at 10 µM; arbovirus infection cell-based antiviral screen; 200,000 compounds, 0.37% hits; AID 1251;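 active = inhibition from about 30%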;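 note: bluetongue infection of BSR cells; cell survival read as ATP light after 72 h; 0% = infected wells without compound and 100% = uninfected wells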
Mtb betalactam: beta-lactam sensitization of Mtb H37Rv | M. tuberculosis H37Rv growth with meropenem, percent inhibition; hits of this screen are not shown here | inhibition, % at 25 µM | 330,000 compounds, 0.27% hits;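 active = about 74% or more and at least 40 points above the plate without the antibiotic, then above 30% in a dose series; inconclusive = first-round hits that could not be retested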;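 note: growth measured after seven days incubation then overnight dye step; 0% = bacteria only wells and 100% = bacteria with antibiotic; twin plates without the antibiotic show which effects depend on it; some results filed as inactive read as strong as hits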
Mtb H37Rv: M. tuberculosis H37Rv growth inhibitors, H37Rv strain (AID 1626). 220,000 compounds, 0.95% hits. one-dose inhibition, % at 10 µM; IC50 in µM for titrated hits. M. tuberculosis H37Rv growth inhibition; higher % means a stronger effect;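 active = confirmed in a dose series; inconclusive = inhibition above 80% but not taken into the dose series; inactive = below 80% or under 30% at every dose of the series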;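 note: bacteria incubated seven days before Alamar blue readout; 0% = bacteria only wells and 100% = bacteria with antibiotic wells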
RecA splice inh: Mtb RecA intein splicing inhibition | cell-free RecA intein splicing, fluorescence | inhibition, %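 (about 9 µM by stock and volumes)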 | 290,000 compounds, 0.75% hits; in the data active = inhibition above about 30%; inconclusive = no clear call, values can overlap the other calls;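 note: 0% = vehicle wells and 100% = reference inhibitor control wells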
Target sequence (P9WHJ3 whole entry, looked up, canonical isoform): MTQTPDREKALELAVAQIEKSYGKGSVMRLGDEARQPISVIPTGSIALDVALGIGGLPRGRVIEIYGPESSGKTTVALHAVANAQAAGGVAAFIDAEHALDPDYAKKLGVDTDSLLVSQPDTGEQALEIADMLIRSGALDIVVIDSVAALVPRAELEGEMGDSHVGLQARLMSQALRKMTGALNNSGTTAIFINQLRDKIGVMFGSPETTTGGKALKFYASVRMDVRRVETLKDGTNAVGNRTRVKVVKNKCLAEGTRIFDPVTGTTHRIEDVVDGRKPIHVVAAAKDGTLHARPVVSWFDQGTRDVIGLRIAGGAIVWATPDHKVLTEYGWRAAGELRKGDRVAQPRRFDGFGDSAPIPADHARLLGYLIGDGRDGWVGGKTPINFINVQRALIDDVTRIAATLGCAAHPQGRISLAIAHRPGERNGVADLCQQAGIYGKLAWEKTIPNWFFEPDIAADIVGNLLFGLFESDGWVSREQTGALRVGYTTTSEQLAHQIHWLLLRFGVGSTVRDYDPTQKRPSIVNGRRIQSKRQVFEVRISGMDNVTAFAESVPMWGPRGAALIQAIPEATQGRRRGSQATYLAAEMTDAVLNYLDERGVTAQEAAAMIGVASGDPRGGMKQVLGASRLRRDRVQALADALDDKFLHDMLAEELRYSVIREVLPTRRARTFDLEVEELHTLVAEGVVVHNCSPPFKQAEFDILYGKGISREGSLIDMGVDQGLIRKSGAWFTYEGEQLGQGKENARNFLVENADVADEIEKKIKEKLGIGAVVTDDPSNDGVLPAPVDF
Arbovirus anti repeat: second read-out of Arbovirus anti, no call of its own (marks repeat the call); inhibition, %; measured here: 10K subset replicate screen; many hits read low in the repeat;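 first of two repeat runs on a subset; 0% = infected and 100% = uninfected wells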
Active calls of the source: *; u = inconclusive; x = no result given.

SMILES	YopH PTP inh	Arbovirus anti	Mtb betalactam	Mtb H37Rv	RecA splice inh	others
CC(CNCc1ccc2c(c1)OCO2)NCc1ccc2c(c1)OCO2 (centres undefined)	x	-8	67	11%	1.6	Arbovirus anti repeat=-7
Cc1ccc(C2=NN(C(=O)CSc3nc(N)cc(N)n3)C(c3ccco3)C2)cc1 (centres undefined)	-24	16	-1	-2%	-0.8
CSc1nnc(-c2cc(-c3ccc(C)cc3)nc3ccccc23)o1	-30	0	10	-2%	1.6
O=C(Cn1cnc2cc([N+](=O)[O-])ccc2c1=O)NC(=O)NCc1ccccc1	x	x	4	-4%	-9.0
ClC(/C=N/n1cnnc1)=C/c1ccccc1	x	x	-5	0%	2.3
COc1ccc(OCC(O)Cn2cnc(-c3ccc(Br)cc3)c2)cc1 (centres undefined)	-9	0	-1	19%	-1.5
COc1ccc(-c2nnc(SCC(=O)NCc3ccco3)n2C)cc1	-41	-1	4	-5%	2.4
NC(=O)CSCc1nc2ccccc2s1	-21	0	-14	-11%	-3.4
COc1cc(C(=S)N2CCC(C)CC2)ccc1O	-9	10	-5	-2%	1.2
S=C(NCc1ccco1)N1CCN(c2nc(-c3ccccc3)cs2)CC1	x	-6	15	-10%	0.1
CCCCc1nnc(NC(=O)c2ccc3[nH]c(=O)c(=O)[nH]c3c2)s1	x	x	-3	x	1.5
c1ccc2c(c1)nc(NCC1CCCO1)c1nnnn12 (centres undefined)	-28	-8	-5	0%	-1.3	Arbovirus anti repeat=1
CCc1ccccc1NC(=O)C1=CC(c2cccs2)=NS(=O)(=O)N1C	x	x	4	x	1.6
COc1ccc(Cn2c(SCc3ccc(C)cc3)nc3cc(OC)c(OC)cc3c2=N)cc1Cl	-24	-30	100	2.5µM*	2.2
N#Cc1c(NC(=O)CSc2nc(-c3ccco3)cc(C(F)(F)F)n2)sc2c1CCCC2	5	-10	76	16%	x
COc1ccc(C(=O)CSc2nnc(CNc3ccc(C)cc3C)o2)cc1	-29	8	-8	2%	-2.4
Clc1ccccc1CSc1ncn(-c2ccccc2)n1	0	-11	10	-3%	11
CCOC(=O)c1ccc(CN(Cc2ccccc2)S(=O)(=O)c2cccc([N+](=O)[O-])c2)cc1	-18	1	2	2%	1.2
COc1ccc(S(=O)(=O)N2CCN(C)CC2)cc1C(=O)Nc1ccccc1	x	x	-1	x	0.1
O=C(COc1ccc(Br)cc1Br)NC1CCCC1	x	-3	-3	-2%	4.4

16 successive compounds already listed:
SMILES	YopH PTP inh	Arbovirus anti	Mtb betalactam	Mtb H37Rv	RecA splice inh	others
ClC(/C=N/n1cnnc1)=C/c1ccccc1	x	x	-5	0%	2.3
COc1ccc(OCC(O)Cn2cnc(-c3ccc(Br)cc3)c2)cc1 (centres undefined)	-9	0	-1	19%	-1.5
COc1ccc(-c2nnc(SCC(=O)NCc3ccco3)n2C)cc1	-41	-1	4	-5%	2.4
NC(=O)CSCc1nc2ccccc2s1	-21	0	-14	-11%	-3.4
COc1cc(C(=S)N2CCC(C)CC2)ccc1O	-9	10	-5	-2%	1.2
S=C(NCc1ccco1)N1CCN(c2nc(-c3ccccc3)cs2)CC1	x	-6	15	-10%	0.1
CCCCc1nnc(NC(=O)c2ccc3[nH]c(=O)c(=O)[nH]c3c2)s1	x	x	-3	x	1.5
c1ccc2c(c1)nc(NCC1CCCO1)c1nnnn12 (centres undefined)	-28	-8	-5	0%	-1.3	Arbovirus anti repeat=1
CCc1ccccc1NC(=O)C1=CC(c2cccs2)=NS(=O)(=O)N1C	x	x	4	x	1.6
COc1ccc(Cn2c(SCc3ccc(C)cc3)nc3cc(OC)c(OC)cc3c2=N)cc1Cl	-24	-30	100	2.5µM*	2.2
N#Cc1c(NC(=O)CSc2nc(-c3ccco3)cc(C(F)(F)F)n2)sc2c1CCCC2	5	-10	76	16%	x
COc1ccc(C(=O)CSc2nnc(CNc3ccc(C)cc3C)o2)cc1	-29	8	-8	2%	-2.4
Clc1ccccc1CSc1ncn(-c2ccccc2)n1	0	-11	10	-3%	11
CCOC(=O)c1ccc(CN(Cc2ccccc2)S(=O)(=O)c2cccc([N+](=O)[O-])c2)cc1	-18	1	2	2%	1.2
COc1ccc(S(=O)(=O)N2CCN(C)CC2)cc1C(=O)Nc1ccccc1	x	x	-1	x	0.1
O=C(COc1ccc(Br)cc1Br)NC1CCCC1	x	-3	-3	-2%	4.4

More compounds.
SMILES	YopH PTP inh	Arbovirus anti	Mtb betalactam	Mtb H37Rv	RecA splice inh	others
COC(=O)CCCCCCCCC(O)CN1CCCCC1 (centres undefined)	-10	7	-11	5%	0.5
O=C(CC12CC3CC(CC(Br)(C3)C1)C2)Nc1cccc(S(=O)(=O)NC2=NCCC2)c1	x	0	5	-7%	-1.0
NNC(=O)c1ccc(Cn2cc(Br)c(N)n2)cc1	x	x	-3	2%	-4.8
COc1cc(COC(=O)c2cnc(C)cn2)c(OC)cc1Br	x	x	1	x	-1.9
Cc1nnc(C)n1/N=C/c1cc(Br)cc(Br)c1O	-12	-13	-7	-7%	-0.2
Cn1ccsc1=NC(=O)c1ccc(Cl)cc1	x	-1	0	3%	-1.3
COC(=O)[C@@]1(Cc2ccc(F)cc2)[C@H]2c3cc(C(=O)N4CCCC4)n(CCCNc4ncc(C(F)(F)F)cc4Cl)c3C[C@H]2CN1C(=O)c1ccccc1	x	x	-2	x	12
O=C(NCC(c1ccco1)N1CCN(c2ccccc2F)CC1)c1ccc2c(c1)OCO2 (centres undefined)	x	x	-8	x	6.5
O=S(=O)(c1ccc(Br)s1)N1CCN(Cc2ccc3c(c2)OCO3)CC1	-22	2	-1	-3%	-3.3
Cc1cc(C)c2c(N)c(C(=O)Nc3ccccc3F)sc2n1	x	x	-7	x	-37
CCCc1nnc(NC(=O)CCC(=O)N2CCN(C3CCCC3)CC2)s1	x	x	0	x	-1.3
COc1ccc(OC)c2sc(NC(=O)C(C)C)nc12	-17	-7	-3	-2%	1.9	Arbovirus anti repeat=-4
COC(=O)c1oc2ccc(OC)cc2c1N	-39	-2	3	-18%	-7.8
Cc1ccc(C2=NOC(=O)/C2=C\c2ccc(C)o2)cc1	x	x	28	-12%	2.9
CCOC(=O)C1C(=O)C=C(C)C(C(=O)OCC)C1c1ccc(OC)cc1 (centres undefined)	-17	-4	-14	0%	5.3
O=C(Nc1cccc(S(=O)(=O)C(F)F)c1)c1ccc(S(=O)(=O)N2CCCC2)cc1	x	-5	1	3%	0.3
C=CCNC(=O)c1ccccc1NS(=O)(=O)c1ccc(OC)c(C(=O)N2CCOCC2)c1	x	x	1	x	9.3
O=C(O)CSCc1nc2cccnc2n1C1CCCCC1	x	x	-7	x	1.5
Cc1nc(NC(=O)CSc2cc(C)c3ccccc3n2)c(Cl)cc1Cl	-27	16	8	8%	-1.7
CCOC(=O)C1CCN(S(=O)(=O)CCNC(=O)c2ccccc2)CC1	x	x	-2	x	-0.6
CC(C)N(CC#CCC(O)(c1ccccc1)C1CCCC1)CCO (centres undefined)	x	-12	-9	-7%	-0.5
CCC(Oc1ccccc1)C(=O)Nc1ccc(S(=O)(=O)Nc2cc(C)on2)cc1 (centres undefined)	x	x	-3	x	1.6
Cc1nc2nc(-c3cccs3)[nH]c2cc1Br	x	x	-9	x	1.5
COC(=O)CCNc1ccc2c(c1)OCCO2	-24	-12	-4	3%	8.3
COc1ccc(C(C(=O)NC2CCCCC2)N(C(=O)Cc2c[nH]c3ccccc23)c2ccccc2C)cc1OC (centres undefined)	-24	-11	4	7%	4.8
COc1ccccc1NC(=O)c1cc(N)cc(C(=O)Nc2ccccc2OC)c1	x	x	-3	x	0.2
CC1CCCCC1NC(=O)CNC(=O)c1cccs1 (centres undefined)	x	x	-11	x	0.3
Cc1ccccc1NS(=O)(=O)c1ccc(C(=O)NCC(c2ccco2)N2CCCCC2)cc1 (centres undefined)	x	x	-10	x	10
Cc1[nH]c2c(Br)cccc2c1[C@H]1[C@@H](CC#N)C1(C)C	-7	10	-3	7%	12
CC(C)c1ccc(NC2CCCN(C(=O)c3ccco3)C2)cc1 (centres undefined)	x	x	-3	x	-0.5
COc1cc(/C=N/n2c(-c3n[nH]c4c3CCC4)n[nH]c2=S)cc(OC)c1O	x	x	-4	-7%	-5.8
Cc1cc(NS(=O)(=O)c2ccc(NC(=O)/C=C/c3ccc(Br)cc3)cc2)no1	x	x	59	x	1.5
COc1ccc(-n2c(O)c(C(C)=NCCN3CCNCC3)c(=O)[nH]c2=O)cc1	-26	2	7	-9%	2.4
COc1ccc(S(=O)(=O)Nc2nccs2)cc1OC	x	3	4	6%	-2.1
O=C(/C=C/NNC(=O)c1ccc(Cl)cc1)c1ccccc1	x	-1	6	3%	16
CC(=O)c1ccc(OCCCC(=O)n2nnc3ccccc32)cc1	1	1	2	-7%	4.2
CCOC(=O)c1[nH]c2ccc(OCC)cc2c1CCCN1C(=O)c2ccccc2C1=O	-26	-2	1	-8%	0.3
COc1ccc(OC)c(-c2cn(S(=O)(=O)c3ccccc3)nc2N)c1	-14	7	-8	3%	-1.4
NC(=O)C1(N2CCCCC2)CCN(Cc2nc3ccccc3c(=O)[nH]2)CC1	-5	3	8	0%	-2.0
COc1cc(-c2nnc(-c3cc(OC)c(OC)c(OC)c3)o2)cc(OC)c1OC	-27	6	-2	-5%	-0.5
CC1Cc2ccccc2N1S(=O)(=O)c1cccc2nsnc12 (centres undefined)	-3	-5	-4	9%	12
N#CC1=C(N)Oc2c(c(=O)sc3ccccc23)C1c1cccnc1 (centres undefined)	x	-10	-12	-2%	-4.1
CNC(=S)Nc1ccc(Nc2ccccc2)cc1	-29	-28	98	5%	1.6
C=CCn1c(C(C)NC(=O)c2cccs2)n[nH]c1=S (centres undefined)	-28	7	6	2%	3.1
CC1(C)CC(=O)C(=Cc2cn(-c3ccccc3)nc2-c2ccc(Cl)cc2)C(=O)C1	12	-35	82	8%	2.4
NC(=O)c1ccc(NS(=O)(=O)c2ccc3ccccc3c2)cc1	x	x	-6	x	-1.3
Cc1ccc(S(=O)(=O)N(C)C)cc1NC(=O)COC(=O)c1ccc2c(c1)OCCO2	x	3	3	-7%	-2.6
CCN(CC)C(=O)CSc1nnc(COc2ccccc2)n1CC	-6	-1	0	-6%	-2.7
Cc1c(Cl)c([N+](=O)[O-])nn1CCCC(=O)NC1CCCCC1	x	10	0	-9%	-2.6
Cc1cccc(Oc2sc(C(=O)c3ccccc3)c(N)c2C#N)c1	-11	-4	-10	17%	3.7
Next compounds
SMILES	YopH PTP inh	Arbovirus anti	Mtb betalactam	Mtb H37Rv	RecA splice inh	others
Cc1nc2n[nH]c(N)c2c2c1CCCC2	x	x	-5	7%	-2.8
O=S1(=O)C=C(Sc2nc3ccccc3s2)c2ccccc21	-24	-29	99	u	9.3
CC(=O)Oc1ccc(NC(=O)CSc2ccccc2)cc1	-21	-17	16	-5%	7.7
Cn1c(-c2ccc([N+](=O)[O-])cc2)nc2ccccc21	x	1	0	3%	1.1
CC(C)CCn1c(Br)nc2c1c(=O)n(CC(N)=O)c(=O)n2C	-24	5	-3	-2%	0.3
Cn1c(=O)[nH]c2c(Cl)nccc21	x	x	-1	-7%	-2.6
CN(C(=O)c1ccc2c(c1)CCO2)C(C)(C)C	x	x	2	-1%	1.6
CN1Cc2ccccc2N(CC(=O)NCc2ccccc2)C1=O	x	2	-1	1%	2.5
Cc1ccc2nc(Cn3cc(C(F)(F)F)ccc3=O)cc(=O)n2c1	x	11	5	-5%	-0.1
Cn1cnnc1SCNC(=O)C(F)(F)F	-40	0	2	-14%	-0.1
CCC(=O)c1ccc(OCC(O)CN2CCN(S(=O)(=O)c3ccc(NC(C)=O)cc3)CC2)cc1 (centres undefined)	x	x	-6	x	-0.7
C=CCN1C(=O)CSc2ccc(C(=O)N3CCC(C)CC3)cc21	-44	0	-9	-5%	0.5
O=CN1Cc2ccccc2-c2ccccc2C1	x	x	-3	x	-0.7
N[C@@H](Cc1c[nH]c2ccccc12)c1nnc(SCc2ccc(F)cc2)o1	-39	9	x	2%	2.3
COc1ccc(N2CCN(C(=O)c3ccc(CSc4ccccc4)cc3)CC2)cc1	-34	-4	1	1%	3.7
Cc1ccc(OCC(=O)OCCN2C(=O)c3ccccc3C2=O)cc1C	-19	1	79	9%	2.1
CCOc1ccccc1NC(=O)CCn1c(=O)oc2ccccc21	-29	2	7	-12%	-3.1
O=C(CCCn1c(=O)[nH]c2ccsc2c1=O)N1CCN(c2ccccn2)CC1	6	0	-1	-8%	-2.4	Arbovirus anti repeat=5
CC(C)CCNC(=O)CCc1nnc2ccc(N3CCC(C)CC3)nn12	x	x	5	x	-3.5
COc1cc(C(=O)Nc2ccc(C)cc2)c2ccccc2n1	x	x	8	x	-1.6

Not all compounds are listed; rates above refer to the full screens.
